# Compound activity from PubChem BioAssay.
# CSC inhib – blocks cancer stem cells | cancer stem cell-like cells viability, luminescence | inhibition, % at 7.5 µM | 1.1% of 300,000 active;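 active means mean at 75% or more and at least half the replicates too; tested in HMLE shEcad cells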;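 further: 0% = median of negative and 100% = median of positive control wells; the first replicate is given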
# MT1-MMP act inh – inhibitors of human MT1-MMP activation | 0.061% of 360,000 active | GFP/RFP ratio change, % at 20 µM | P50281 | HT1080 RFP-PRO-GFP cells, GFP/RFP ratio fluorescence, overnight; percent of plate control window, DMSO zero;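 active means GFP/RFP ratio change of at least 30% with cell ATP level not reduced by more than half and red fluorescence within 50% of control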; further: strong numbers were not always called active
#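 Assay system: HT1080 cells carrying an RFP-PRO-GFP reporter | Dosing: Single dose of 20 µM compound, 1% DMSO final | Incubation: Cells overnight before dosing, compound overnight, 37 °C, 5% CO2 | Evaluation: GFP/RFP fluorescence ratio | Control set: DMSO and RFP-L50D-GFP cell wells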
# PABP polyA inh – blocks human PABP binding to poly(A) RNA. fluorescence polarization. inhibition, % at 35 µM. 1% of 290,000 active;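 active means 50% or more with normal probe brightness, or confirmed in later tests; about a fifth of its hits are not listed in these tables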;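 further: calls also rest on retests at 20 µM and on dose response follow-up; controls were probe without protein and protein plus probe with vehicle; some compounds called inactive have numbers as strong as hits; many hits fall short of the cut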
# Env fusion inh – blocks HIV Env-driven cell-cell fusion | HeLa-JRFL Env/CEM21 cell fusion, luciferase | inhibition, % at 12.3 µM | 1.1% of 360,000 active;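 active means mean replicate inhibition score of at least 50 and every replicate individually at or above 50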;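 further: 0% = plate neutral controls and 100% = maraviroc near 300 nM; one replicate is shown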
# Yeast UUG start – alters start codon recognition fidelity in yeast; activity score, % at 18.7 µM; AID 602363; 0.13% of 350,000 active; S. cerevisiae UUG-firefly luciferase reporter, luminescence/redox ratio;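 active means replicate mean at a twofold rise or more, about +100% in these data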;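 further: firefly luciferase made from a UUG start codon reports start codon fidelity; reporter light over untreated wells divided by growth signal over untreated wells; some hits fall short of that in this replicate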
# Rce1 inh – yeast Ras-converting enzyme inhibition | yeast membranes, quenched prenylated peptide cleavage fluorescence | Q03530 | calls only | 0.27% of 290,000 active;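 active means fall in fluorescence gain of 50% or more versus controls, with final raw signal at or below 3038400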;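 further: plate controls were neutral control wells for no effect and wells lacking membranes for full effect; tested at 10 µM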
# Target sequence (Q03530 whole entry, looked up): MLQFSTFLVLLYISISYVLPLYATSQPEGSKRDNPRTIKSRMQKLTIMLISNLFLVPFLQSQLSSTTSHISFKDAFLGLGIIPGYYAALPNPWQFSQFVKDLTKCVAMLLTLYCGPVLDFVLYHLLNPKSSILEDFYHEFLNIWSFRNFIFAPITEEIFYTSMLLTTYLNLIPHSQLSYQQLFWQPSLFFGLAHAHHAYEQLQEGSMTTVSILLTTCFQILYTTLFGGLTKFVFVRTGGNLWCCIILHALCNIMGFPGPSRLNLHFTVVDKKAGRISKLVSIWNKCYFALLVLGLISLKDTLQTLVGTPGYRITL
# eIF4H inh – inhibitors of RNA binding by human eIF4H. eIF4H fluorescence polarization binding assay. AID 2012. 0.94% of 290,000 active. Q15056. inhibition, % at 35 µM;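 active means 50% or more with normal probe brightness, or confirmed in later tests; about a fifth of its hits are not listed in these tables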;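 further: calls also rest on retests at 20 µM and on dose response follow-up; 0% = protein and probe with vehicle and 100% = probe without protein; strong numbers were not always called active; many hits fall short of the cut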
# eIF4H inh retest – further read-out of eIF4H inh, marked with its call; inhibition, %; compound at 20 µM; confirmation average;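 mean of two retest wells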
# PABP polyA inh retest – recorded beside PABP polyA inh, whose call it bears; inhibition, %; compound at 20 µM; confirmation repeats;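 mean of two retest wells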
# MT1-MMP act inh RFP – second read-out of MT1-MMP act inh, no call of its own (marks repeat the call); RFP signal change, %; measured here: RFP expression control read;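 0 = vehicle wells; hits needed this value within 50% of zero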
# * marks the source's active call; other numbers are inactive results; i = inactive; . = not tested or not shown; + = active, no number; & = joins results of further samples.
SMILES,CSC inhib,MT1-MMP act inh,MT1-MMP act inh RFP,PABP polyA inh,Env fusion inh,Yeast UUG start,Rce1 inh,eIF4H inh,others
C#CCOCCOCCOCCNc1nc(N2CCOCC2)nc(N2CCN(C(=O)[C@H]([C@@H](C)CC)n3cc(CCCN=C(N)N)nn3)CC2)n1,2.1,-2.4,2.0,7.0,8.4,1.8,i,6.4,
COc1ccc(-n2c(Cc3cccn3C)nnc2SCC(=O)Nc2cccc(NC(C)=O)c2)cc1,-10.8,8.6,2.8,3.3,0.3,4.3,i,5.7,
COC(=O)c1cccc(NC(=O)C2COc3ccccc3O2)c1 (stereo not given),-13.8,-7.6,-5.4,0.5,-80.9,12.9,i,15.4,
CC(=O)c1cccc(NC(=O)CNC(=O)Cc2ccccc2)c1,-13.1,1.7,3.2,8.2,-1.1,-16.8,i,17.3,
CCn1cc(CN2CCN(Cc3ccsc3)C(CCO)C2)cn1 (stereo not given),-10.2,-1.2,5.1,-6.9,-9.6,.,i,-9.7,
COc1ccccc1NS(=O)(=O)c1cccc(C(=O)NNC(=O)C(C)NC(=O)c2ccco2)c1 (stereo not given),-0.9,1.9,-1.0,.,.,-2.8,.,.,
Cc1nc(-c2nc(-c3c(C(=O)NNC(=O)Nc4cccc(Cl)c4)noc3C)cs2)cs1,15.5,0.0,-5.6,3.4,-17.2,1.8,i,7.1,
Cc1csc(NC(=O)CSc2nnc(-c3ccoc3C)o2)n1,-11.1,6.7,0.4,5.5,-85.6,-14.1,i,-4.4,
Cc1cc(/C=C2/C(=N)N3C(=NC2=O)SN=C3S(C)(=O)=O)c(C)n1-c1ccccc1,8.5,2.7,2.1,-5.5,-83.5,.,.,93.3,eIF4H inh retest=-7.9;PABP polyA inh retest=11.8
CCOC(=O)c1cccc(N2C(=O)Nc3ccccc3N2O)c1,-0.9,1.2,3.3,-1.9,-47.4,3.0,i,3.0,
Cc1ccc(NC(=O)COc2ccccc2C#N)cc1S(=O)(=O)N1CCCCCC1,.,4.4,-10.1,.,2.4,-13.3,.,.,
Cc1ccc(S(=O)(=O)NNC(=O)c2ccc(F)cc2)cc1,-8.5,0.0,1.3,3.1,-17.3,-22.0,i,-9.8,
NS(=O)(=O)c1cccc(NC(=O)COC(=O)c2ccccc2SCC(=O)N2CCCC2)c1,-6.6,-2.0,4.3,.,-5.6,-12.7,.,.,
COc1ccc2c(c1)CCCC21NC(=O)N(CC(=O)c2cc(F)ccc2F)C1=O (stereo not given),.,-0.1,2.0,.,-1.8,-11.0,.,.,
COc1cc(/C=C/C(=O)OCC(=O)NC(=O)NC(C)(C)C)cc(OC)c1OC,.,6.8,2.6,8.5,9.7,.,i,0.8,
CC1Cc2ccccc2N1C(=O)CN(C)CC(=O)Nc1cccc(F)c1 (stereo not given),.,-5.5,-2.3,.,25.8,-17.2,.,.,
N#C/C(=C\c1cccnc1)C(=O)Nc1ccc(Cl)cc1,5.8,-3.0,-2.2,4.0,.,-16.3,i,3.8,
C=CCn1c(O)c(N=NC(=S)Nc2cccc(C)c2)c2ccccc21,44.0,-4.8,-8.6,4.4,46.9,.,i,5.2,
Cc1cc(OCCCCOc2ccc(S(N)(=O)=O)c(C)c2)ccc1S(N)(=O)=O,5.6,-3.8,-16.5,-0.2,-0.4,-5.6,i,3.8,
Cc1ccc(C(=O)N/N=C/c2cccc(OC(=O)/C=C/c3ccco3)c2)cn1,-2.1,0.2,4.9,54.6,-11.9,.,i,86.1*,eIF4H inh retest=57.9*;PABP polyA inh retest=44.5
COc1ccc2c(c1)NC(c1ccc(N(C)C)cc1)c1cccn1-2 (stereo not given),3.6,-5.8,-5.4,10.0,16.6,-30.8,i,8.3,
CCOc1ccccc1C1C(C#N)=C(N)Oc2cc(C)n(C)c(=O)c21 (stereo not given),-8.6,4.5,5.0,-11.3,.,5.8,i,-5.4,
CSc1ncc(CN2CCc3c([nH]c4ccccc34)C2c2cccc(C)n2)cn1 (stereo not given),-9.7,-1.0,1.9,0.0,7.8,-7.6,i,-9.7,
COc1ccc(Br)cc1CN(C)CC(O)COc1ccc(Br)cc1 (stereo not given),.,2.7,3.4,15.4,32.5,-6.8,i,8.6,
COc1ccc(CNC(=O)COC(=O)CCCOc2ccc(Cl)cc2Cl)cc1,-2.9,1.4,2.9,-6.5,-0.6,.,i,-10.0,

# Next part, starting with the last two of the part before.
SMILES,CSC inhib,MT1-MMP act inh,MT1-MMP act inh RFP,PABP polyA inh,Env fusion inh,Yeast UUG start,Rce1 inh,eIF4H inh,others
COc1ccc(Br)cc1CN(C)CC(O)COc1ccc(Br)cc1 (stereo not given),.,2.7,3.4,15.4,32.5,-6.8,i,8.6,
COc1ccc(CNC(=O)COC(=O)CCCOc2ccc(Cl)cc2Cl)cc1,-2.9,1.4,2.9,-6.5,-0.6,.,i,-10.0,
Cc1cc(C)n(-c2nc(NCC(C)O)c3c4c(sc3n2)CCCC4)n1 (stereo not given),-0.9,7.3,-0.2,-10.6,.,-13.8,i,3.9,
CCOC(=O)C1=C(C)NC(=O)NC1c1ccc(Cl)cc1Cl (stereo not given),1.0,1.7,0.7,-8.0,.,.,i,-6.2,
NS(=O)(=O)c1ccc(CNS(=O)(=O)c2ccc(Cl)nc2)cc1,-8.4,-0.9,1.6,-12.0,-0.1,-12.9,i,5.8,
COc1ccc(OCC(=O)Nc2ccc(N3CCC(C)CC3)cc2)cc1,-7.5,6.1,2.1,3.0,-1.3,-18.8,i,3.0,
C/C(CC(=O)NCc1ccco1)=N\NC(=O)c1ccc([N+](=O)[O-])cc1Cl,.,1.7,4.8,-5.6,0.9,-14.6,+,-1.2,
COCCN(CCOC)Cc1c(C)[nH]c2ccccc2c1=O,-10.4,3.5,3.5,7.9,21.9,-23.8,i,0.5,
CCC(C)NC(=O)c1ccc(CN2CCc3ccccc3C2)cc1 (stereo not given),-27.5,-1.1,-1.0,0.3,0.0,-12.1,i,-4.4,
Cc1cc(OCC(=O)N2CCC[C@@H]2C(=O)O)c2c(C)c(C)c(=O)oc2c1,-8.8,1.8,4.5,7.5,.,-11.5,i,0.0,
COc1ccc(C(=O)NCc2ccc(C)cc2)cc1S(=O)(=O)N1CCOCC1,.,-1.4,-1.3,.,11.9,-11.3,.,.,
Cc1nn(CC(=O)NCCc2ccccc2)c(=O)c2cc3occc3n12,-9.2,-0.7,3.2,7.6,-5.4,-15.2,i,-1.6,
C[C@@H]1CN([C@H](C)CO)C(=O)CCCn2cc(nn2)CO[C@H]1CN(C)C(=O)CCC(F)(F)F,.,3.2,4.2,.,-18.5,8.5&7.2,.,.,
CC(C)(CN1CCc2ccccc2C1)NS(=O)(=O)c1ccccc1,11.9,1.2,1.7,2.5,0.2,.,i,4.8,
O=C(Nc1cc(Cl)ccc1F)C1=COCCO1,.,5.2,3.5,.,-12.3,.,i,.,
COc1ccc(C(c2nnnn2C2CCCCC2)N2CCN(C/C=C/c3ccccc3)CC2)cc1 (stereo not given),.,-3.0,-3.5,.,-35.9,-0.9,.,.,
COC(=O)c1ccc(C(c2c(C)n(C)n(-c3ccccc3)c2=O)c2c(C)n(C)n(-c3ccccc3)c2=O)cc1,-21.7,1.5,0.7,-0.4,26.2,15.1,i,-1.9,
CCCCCCNC(=O)Cc1c(O)c2ccccc2[nH]c1=O,-9.2,8.9,-0.2,9.3,.,-4.9,i,7.1,
O=C(CN(CCc1ccccc1)S(=O)(=O)c1ccc(Cl)cc1)N/N=C/c1ccc2c(c1)OCO2,-5.0,1.3,1.2,14.6,-403.5,-9.5,i,-7.3,
CC(C)C(=O)N1CCC1(C)C(=O)NCc1ccc(F)cc1Cl (stereo not given),.,6.3,7.6,.,6.4,-9.7,.,.,
O=C(CN(C(=O)CCC(=O)Nc1nccs1)c1ccccc1F)NCc1ccccc1,-12.4,-1.1,2.7,-2.9,2.7,13.3,.,-0.5,
C[C@H](NC(=O)COc1ccccc1)C(=O)OCC(=O)c1cc2ccccc2o1,.,-2.9,5.4,.,3.9,-6.5,.,.,
Cn1c(=O)n(C)c2cc(/C=N/NC(=O)c3ccncc3)ccc21,0.5,.,.,-5.5,.,.,i,-10.9,
O=C(Nc1ccc2c(c1)OCCO2)C(c1cc2ccccc2o1)N1CCN(C/C=C/c2ccccc2)CC1 (stereo not given),.,0.2,-9.0,.,i,-56.0,.,.,
Cc1cccc(NC(=O)c2sc(NC(=O)COc3ccccc3)c(C#N)c2C)c1C,20.6,-2.5,-5.8,-10.1,-20.2,.,i,-5.3,
CCOC(=O)c1cnc(N)nc1-c1ccccc1,.,-2.7,4.4,.,-1.4,-20.2,.,.,
O=C(CN1CCOc2ccccc21)N1CCN(c2cccc(Cl)c2)CC1,-2.3,0.8,0.5,.,3.6,-9.4,i,.,
O=C(COc1ccccc1O)NNc1ccccc1,68.6,-2.9,0.9,-17.1,-14.3,.,i,-6.8,
CC1C(C#N)=C(N)OC2=C1C(=O)CC(c1ccccc1)C2 (stereo not given),60.9,0.0,1.8,-3.1,-14.6,-8.1,i,3.4,
CCOC(=O)C1(Cc2cccc(OC)c2)CCN(Cc2cnc(N)nc2)CC1,-14.0,-0.1,2.5,-10.1,12.2,.,i,-0.9,
O=C(NCc1ccc(F)cc1)C1CCCN(C(=O)Nc2ccccc2)C1 (stereo not given),19.1,-3.1,-0.4,5.0,-21.7,4.6,i,7.1,
Cc1cc(C)c(S(=O)(=O)c2cccc(Br)c2C)c(=O)[nH]1,-9.7,-1.0,2.3,-2.1,7.5,-14.8,i,-11.1,

# Structures above that contain a furan ring, fused or not (7):
SMILES,CSC inhib,MT1-MMP act inh,MT1-MMP act inh RFP,PABP polyA inh,Env fusion inh,Yeast UUG start,Rce1 inh,eIF4H inh,others
COc1ccccc1NS(=O)(=O)c1cccc(C(=O)NNC(=O)C(C)NC(=O)c2ccco2)c1 (stereo not given),-0.9,1.9,-1.0,.,.,-2.8,.,.,
Cc1csc(NC(=O)CSc2nnc(-c3ccoc3C)o2)n1,-11.1,6.7,0.4,5.5,-85.6,-14.1,i,-4.4,
Cc1ccc(C(=O)N/N=C/c2cccc(OC(=O)/C=C/c3ccco3)c2)cn1,-2.1,0.2,4.9,54.6,-11.9,.,i,86.1*,eIF4H inh retest=57.9*;PABP polyA inh retest=44.5
C/C(CC(=O)NCc1ccco1)=N\NC(=O)c1ccc([N+](=O)[O-])cc1Cl,.,1.7,4.8,-5.6,0.9,-14.6,+,-1.2,
Cc1nn(CC(=O)NCCc2ccccc2)c(=O)c2cc3occc3n12,-9.2,-0.7,3.2,7.6,-5.4,-15.2,i,-1.6,
C[C@H](NC(=O)COc1ccccc1)C(=O)OCC(=O)c1cc2ccccc2o1,.,-2.9,5.4,.,3.9,-6.5,.,.,
O=C(Nc1ccc2c(c1)OCCO2)C(c1cc2ccccc2o1)N1CCN(C/C=C/c2ccccc2)CC1 (stereo not given),.,0.2,-9.0,.,i,-56.0,.,.,
